KSHV LANA nucl: inhibitors of KSHV LANA-nucleosome binding, primary screen, biochemical, fluorescence polarization, FITC-LANA1-23, chicken nucleosomes; FITC-LANA1-23 / chicken nucleosome fluorescence polarization; active compounds read low; z-score (concentration not given with the values); hit rate 0.3% among 51,000; AID 720717, 2013;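 active = both repeat wells score below -2 in polarization z-score versus plate sample wells, excluding overly bright wells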;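 note: 100 nL library stock added to about 30 µL; numbers are from one replicate; some results filed as inactive read as strong as hits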
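test system = FITC-LANA peptide and chicken nucleosomes | amount = 240 nM purified chicken nucleosomes (480 nM peptide binding sites), final | reagent = 50 nM FITC-LANA1-23 probe | medium = TEN-BT buffer, pH 7.5 | doses = single compound addition by pin transfer, 100 nL per well | timing = 10–45 min, room temperature | detection = fluorescence polarization | repeats = duplicate plates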
BasE inh: BasE siderophore enzyme inhibitors, primary screen, biochemical, Acinetobacter baumannii ATCC 17978, fluorescence polarization. inhibition, % (concentration not given with the values). AID 485350, 2010. purified BasE, fluorescence polarization binding displacement. hit rate 0.1% among 84,000;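 active = both replicates above 25% with normal brightness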;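 note: 0% = negative plate control signal and 100% = positive plate control signal; stock transfer was 100 nL into about 30 µL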
* marks the source's active call; other numbers are inactive results; · = not tested or not shown; & = joins results of further samples. These rows are one share of the data, so the mix of outcomes need not match the whole.

SMILES	KSHV LANA nucl	BasE inh
CN=C1NC(=O)CC(C(=O)Nc2ccc3ccccc3c2)S1 (stereo unspecified)	·	1.2
COC(=O)c1cnc(NC2CCCCC2)c2ccccc12	-1.06	4.2
O=S(=O)(Oc1cccc(N2CCOCC2)c1)c1ccc(Cl)cc1	2.43	·
COC(=O)c1ccc(CNC(=O)CSC2=NCCS2)cc1	·	-0.1
CCOC=C(C#N)C#N	·	2.8
COc1ccccc1Oc1ccc(N/C=C/C(=O)c2ccc(C)o2)cc1	1.96	-11.4
O=c1[nH]c(=O)n(CCCO)c(O)c1N=Nc1c(Cl)cccc1Cl	-0.234	3.4
COCC(=O)Nc1ccc(S(=O)(=O)NC(C)(C)C)cc1	0.416	2.6
CCN1CCCC(N)C1 (stereo unspecified)	0.336	-1.9
O=C1S/C(=C\c2ccc3c(c2)OCO3)C(=O)N1Cc1ccc(F)cc1	0.166	0.9
CCOC(=O)/C(C#N)=N/Nc1cc(C(N)=O)c(Cl)cc1Cl	2.91	0.7
COCC(C)Nc1nc(-c2ccc(OC)c(OC)c2)cs1 (stereo unspecified)	·	0.0
CCOC(=O)N1CCC(NC(=O)c2cc(C(=O)Nc3ccc(F)cc3F)ccc2CO)CC1	0.419	0.5
CC1=NN(C(=O)c2ccc(Cl)cc2)C(C)(C)C1	·	1.9
CC(=O)Nc1ccc(-c2csc(N)n2)cc1	-0.28	0.3
NC(=O)COC(=O)c1ccccc1OCc1ccc(F)cc1	·	1.7
N#CC(C(=O)COc1ccccc1)c1ccccc1 (stereo unspecified)	0.306	1.3
Cn1cnnc1SCc1cc(=O)c(OCc2cccc(F)c2)co1	0.737	2.5
CC(C)CNC(=O)Cn1nc(C(F)(F)F)c2c1CCCC2	-0.0175	1.7
CC(NC(=O)c1ccccc1)c1nc2ccccc2n1C(C)C (stereo unspecified)	·	-0.7
C(=Nc1cccc2ccccc12)c1c[nH]c2ccccc12	·	2.3
CCc1ccc(NC(=O)c2nc(S(C)(=O)=O)ncc2N(Cc2ccc(C)cc2)Cc2ccco2)cc1	2.49	-2.6
CCC(=O)N(CCC(c1ccco1)c1ccccc1OC)Cc1cccs1 (stereo unspecified)	3.12	-9.8
CCCCOC(=O)c1ccccc1Nc1ccn2c(=O)c3ccccc3nc2n1	·	0.1
COCC(=O)Nc1c(C(=O)Nc2ccc(C)c(C)c2)oc2ccccc12	-0.268	-0.2
C=CCN1C(=O)c2ccc(C(=O)OCc3ncc(-c4ccccc4)o3)cc2C1=O	·	1.2
Cc1nc(Cc2nnc(SCC(=O)NCC34CC5CC(CC(C5)C3)C4)o2)cs1	·	-0.5
S=C(N=P(c1ccccc1)(N1CCOCC1)N1CCOCC1)N1CCN(c2ccccc2)CC1	·	2.0
Cc1cc(COC(=O)c2ccc(C#N)cc2)no1	·	2.1
Cc1ccc(SC(C)C(=O)Nn2cnnc2)cc1 (stereo unspecified)	-2.08	0.8
CCCCOc1ccc(C2(C)NC(=O)N(C)C2=O)cc1 (stereo unspecified)	1.86	-4.5
CSc1ccccc1NC(=O)CN1CCC(C)CC1	·	0.8
CCOC(=O)C1CCN(C(=O)CCCCn2c(=O)[nH]c3ccccc3c2=O)CC1	-1.39	-0.4
CCOC(=O)c1cc(CC)sc1NC(=S)Nc1ccccc1C(F)(F)F	·	1.0
Cc1ccc(OC(C)C(=O)NC(C)(C#N)C(C)C)cc1 (stereo unspecified)	·	1.7
c1ccc(-c2nnc(CSc3nnc4n3CCCCC4)o2)cc1	·	-1.1
Cc1nn(-c2ccccc2)c2sc(C(=O)OCC(=O)N3CCCC3)cc12	·	2.3
COC(=O)c1ccccc1NC(=O)NC(C)(C)C	0.101	-1.7
CNC12CC3CC(CC(S)(C3)C1)C2	·	0.9
CCN(CC)CCSc1nc2ccccc2n1Cc1ccccc1	0.305	-1.8
CCOc1ccc(/C=C(\C#N)C(N)=C(C#N)C#N)cc1	·	2.1
CSC1=NCCN1S(=O)(=O)c1ccccc1	-1.66	0.4
c1ccc(N2CCN(c3ncnc4sccc34)CC2)nc1	·	-2.4
COC(=O)CCS(=O)(=O)c1cccc2c(S(=O)(=O)CCC(=O)OC)cccc12	·	1.2
O=C(NCCN1CCOCC1)c1ccc(I)cc1	-0.467	2.2
CCc1ccc(-c2csc(NC(=O)CCC(=O)N3CCN(C(C)=O)CC3)n2)cc1	·	0.2
N#Cc1c(O)c2ccccc2[nH]c1=O	-1.12	1.8
O=C(Cn1c(=O)c2ccccc2n(CC(=O)Nc2ccc(Br)cc2)c1=O)NCc1ccco1	0.138	-1.4
C/C=C1\NC(=S)N(c2ccccc2)C1=O	0.244	1.1
O=C(O)CCCCC1CCSS1 (stereo unspecified)	-0.414	-3.0
OCC#CCSc1nc2ccccc2s1	-0.0055	2.0
COc1ccc(S(N)(=O)=O)cc1C(=O)OCc1nc2ccccc2s1	·	0.0
COc1ccc(N2CCN(CC(=O)N(C)C)CC2)cc1	1.1	3.3
COCC(C)N=C1NN=C(c2c[nH]c3ccccc23)CS1 (stereo unspecified)	·	1.0
COc1cc(-c2nc3ccccn3c2/N=C/c2sccc2C)ccc1O	·	2.2
CN(C)S(=O)(=O)c1cccc(C(=O)N2C(=O)c3cccc(N)c3C2=O)c1	·	2.7
Cc1ccc(-n2nc(C(=O)O)c(C)c(C#N)c2=O)cc1C	·	0.8
Cc1nc(Sc2nnc3sc4ccccc4n23)c2c3c(sc2n1)CCC3	·	-3.6
c1ccc(-c2nnnn2CCOCCn2nnnc2-c2ccccc2)cc1	·	3.1
CC1CCC(C(C)C)C(OCC(O)C[N+]2(C)CCCCC2)C1 (stereo unspecified)	·	-0.3
Going on with the list:
SMILES	KSHV LANA nucl	BasE inh
c1ccc2c(c1)CSC(=NCc1ccncc1)N2	-0.91	·
Cc1ccc2c(c1)c1c3n2CC(O)CN=C3CCC1 (stereo unspecified)	-0.236	-2.0
Cc1nnc(SCC(=O)N(C)C2CCCCC2)s1	-0.898	-0.2
O=C(OCC(=O)N1CCCCC1)c1ccccc1SCC(=O)N1CCCCC1	·	0.8
CSc1sc(SC)c(COC(C)=O)c1COC(C)=O	-0.812	0.3
O=C(CSc1nc2c(sc(=S)n2-c2ccccc2)c(=O)n1Cc1ccco1)NC1CCCCC1	0.09	-0.3
CCOc1ccc(/C=C/C(=O)N(C)Cc2ccccc2)cc1OC	0.494	-2.1
CC(C(=O)OCc1nnc(-c2ccccc2)o1)N1C(=O)c2ccccc2C1=O (stereo unspecified)	·	0.5
CCN(CC)c1ccc(C(=O)OCc2c(C)noc2C)cc1	·	1.9
COc1ccc(NC2=NCCC2)cc1	·	0.6
CCN(CC)c1ccc(NC(=O)CNc2ccc(F)cc2F)cc1	·	-2.5
O=C(c1ccco1)N1CCN(C(=O)C(c2ccccc2)N2Cc3ccccc3C2=O)CC1 (stereo unspecified)	0.238	0.5
CN(C)C(=O)C[n+]1cccc(/C=N/O)c1	·	3.1
COC(=O)N/N=C(\C)c1ccc2c(c1)Nc1ccccc1S2	·	-1.3
CC(C)Cn1c(SCn2nnc3ccccc3c2=O)nnc1-c1ccco1	·	2.3
COc1ccc(Cn2nnnc2CN(Cc2cccs2)Cc2cc3ccc(OC)cc3[nH]c2=O)cc1	1.6	-1.4
O=C(COC(=O)C1CCC1)c1ccc(F)cc1	·	-2.0
CC(C)(C)C(=O)Nc1ccc2nn(-c3ccccc3)nc2c1	-0.694	-1.2
COc1ccc(Nc2nc(NCCCC(C)C)nc(OC)n2)c(OC)c1	0.592	3.6
c1ccc2c(c1)CCN(Cc1ccsc1)C2	1.32	-3.2
CCc1nn(CC(=O)O)c(=O)c2cc3ccccc3n12	1.95	0.3
CSC1=NCCN1C(=O)C12CC3CC(CC(C3)C1)C2	-0.175	3.1
O=C(c1ccc(Cl)cc1)C(O)c1c[nH]c2ccccc12 (stereo unspecified)	-0.54	2.2
CC(OC(=O)c1ccccc1)C(=O)NCc1ccco1 (stereo unspecified)	·	-2.0
CCn1c(=O)ccc2cc(OC)ccc21	-0.058	-3.2
Cc1noc(C)c1CSc1nc2ccccc2c(=O)n1C(C)C	·	-0.4
CC(=O)NC(Cc1c[nH]c2ccccc12)C(=O)N1CCN(S(=O)(=O)c2ccccc2)CC1 (stereo unspecified)	·	2.0
CCOC(=O)C1CCC(CNC(=O)NC(c2ccccc2)c2nnc(-c3ccccc3)o2)CC1 (stereo unspecified)	2.29	-4.0
Cc1ccc(C)c(N2C(=O)c3ccc(C(=O)OCC#N)cc3C2=O)c1	·	0.3
CCOc1cccc(OCC)c2c(C)[n+](C)c(C)c1-2	·	4.1
COc1ccc(NS(=O)(=O)c2cccc(-c3nnc4n3CCCCC4)c2)cc1	·	-0.9
Cc1c(C)c2ccc(OC(=O)c3cccs3)cc2oc1=O	0.663	2.6
O=C(CSc1nnc(-c2ccccc2Br)o1)NC(=O)NC1CCCC1	·	-1.0
O=C(c1cn(-c2ccccc2)nc1-c1cccs1)N1CCN(c2ccccc2)CC1	·	0.0
COc1ccc(Cl)cc1C(=O)NCc1ccco1	-0.0345	1.4
CN(C)C=Nc1ncc2c([nH]c3ccccc32)c1C#N	·	-3.2
CC1CCCC(C)N1C(=O)COC(=O)c1ccc(S(=O)(=O)N2CCCC2)cc1 (stereo unspecified)	·	2.3
CC(=O)Oc1c(-c2ccco2)oc2ccccc2c1=O	0.524	0.5
Cn1ncc(S(=O)(=O)Cc2ccccc2)c(Cl)c1=O	-0.779	1.4
c1ccc(C2SCCN2c2ccccc2)cc1 (stereo unspecified)	0.163	2.2
CCOC(=O)c1cc2c(c(CSc3ccc(C(F)(F)F)cn3)c1)OCOC2	·	0.5
Cc1ccc(-c2cc(C(=O)NCCN(C)C)c3cc(Br)ccc3n2)o1	-0.717	-2.9
O=C(CCCc1nc(-c2ccccc2)no1)Nc1cccnc1	2.87	1.4
CC(C)(C)c1cc(C(F)(F)F)c(C#N)c(SCC#N)n1	0.667	-1.5
CC(C)(C)c1ccccc1OCCCCCn1ccnc1	·	2.2
CN(C)/C=C(\C#N)c1ccccn1	-0.652	0.2
CC1=C(C#N)C(=O)NC(=O)/C1=C/c1ccc(-c2cccc(C(=O)O)c2)o1	-0.0145	0.3
CCOC(=O)C1=C(N)OC2=C(C(=O)CCC2)C1c1cccnc1 (stereo unspecified)	2.71	2.6
COc1ccc(C/C(C)=N/NC(N)=O)cc1OC	-0.459	2.4
COCC(C)NCc1ccc2ccccc2c1 (stereo unspecified)	-0.276	-1.1
O=c1ccnc(SCc2ccc(Cl)cc2)[nH]1	-0.112	-0.9&0.0
CCOC(=O)c1nnn(-c2nonc2N)c1-c1ccccc1	-0.343	2.3
Cc1noc(C)c1CSc1cc(C)c2ccccc2n1	·	2.3
CCOC(=O)c1cc(-c2ccccc2)on1	-0.841	·
C=CCn1c(C)cc(C(=O)CN2C(=O)NC(CCSC)C2=O)c1C (stereo unspecified)	·	2.0
O=C(Nc1ccc2[nH]c(=O)[nH]c2c1)c1ccc2c(=O)n3c(nc2c1)CCCCC3	·	-1.0
Cc1cc(-n2c(C)cc(C(=O)CSCc3ccccc3F)c2C)no1	·	1.0
CC(C)(C)OC(=O)N1CCN(C(=O)OC(C)(C)C)CC1	-0.282	-0.5
CN(Cc1cccs1)C(=O)CN1C(=O)C2CC=CCC2C1=O (stereo unspecified)	·	1.6
CCc1nn2c(=O)cc(COc3ccc(/C=C4\C(=O)NN(c5ccccc5)C4=O)cc3)nc2s1	-0.124	0.6
The list continues:
SMILES	KSHV LANA nucl	BasE inh
CC(C)(C)OC(=O)/C(C#N)=C/C1CCCCC1	0.33	2.0
Cc1cc(C)c2oc(-c3cc(NC(=O)COc4ccccc4C)ccc3Cl)nc2c1	·	-1.3
CC1CN(C(=O)C23CC4CC(C)(CC(C)(C4)C2)C3)CC(C)O1 (stereo unspecified)	0.863	-0.5
CCOc1ccc(-n2c(SCc3nc(N)nc(N)n3)nc3ccccc32)cc1	·	-0.4

Some of these compounds in order of length of the SMILES, ascending.
SMILES	KSHV LANA nucl	BasE inh
CCN1CCCC(N)C1 (stereo unspecified)	0.336	-1.9
O=C(O)CCCCC1CCSS1 (stereo unspecified)	-0.414	-3.0
CN(C)/C=C(\C#N)c1ccccn1	-0.652	0.2
CSC1=NCCN1S(=O)(=O)c1ccccc1	-1.66	0.4
COC(=O)c1cnc(NC2CCCCC2)c2ccccc12	-1.06	4.2
c1ccc(N2CCN(c3ncnc4sccc34)CC2)nc1	·	-2.4
COC(=O)c1ccc(CNC(=O)CSC2=NCCS2)cc1	·	-0.1
CCOC(=O)c1nnn(-c2nonc2N)c1-c1ccccc1	-0.343	2.3
CCN(CC)c1ccc(NC(=O)CNc2ccc(F)cc2F)cc1	·	-2.5
CC(C)(C)C(=O)Nc1ccc2nn(-c3ccccc3)nc2c1	-0.694	-1.2
CC1CCC(C(C)C)C(OCC(O)C[N+]2(C)CCCCC2)C1 (stereo unspecified)	·	-0.3
COc1cc(-c2nc3ccccn3c2/N=C/c2sccc2C)ccc1O	·	2.2
Cc1ccc(C)c(N2C(=O)c3ccc(C(=O)OCC#N)cc3C2=O)c1	·	0.3
CCOC(=O)c1cc2c(c(CSc3ccc(C(F)(F)F)cn3)c1)OCOC2	·	0.5
COc1ccc(NS(=O)(=O)c2cccc(-c3nnc4n3CCCCC4)c2)cc1	·	-0.9
Cc1nc(Cc2nnc(SCC(=O)NCC34CC5CC(CC(C5)C3)C4)o2)cs1	·	-0.5
COC(=O)CCS(=O)(=O)c1cccc2c(S(=O)(=O)CCC(=O)OC)cccc12	·	1.2

Compound activity: PubChem, ICCB-Longwood Screening Facility, Harvard Medical School
